Screening data: PubChem, Southern Research Specialized Biocontainment Screening Center
Mtb bLac sens – beta-lactam sensitization of Mtb H37Rv; inhibition, % at 25 µM; M. tuberculosis H37Rv growth with meropenem, percent inhibition; hits of this screen are not shown here; AID 434955; 330,000 tested, 0.27% active;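 active = about 74% or more and at least 40 points above the plate without the antibiotic, then above 30% in a dose series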;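 note: growth measured after seven days incubation then overnight dye step; 0% = bacteria only wells and 100% = bacteria with antibiotic; twin plates without the antibiotic show which effects depend on it; some results filed as inactive read as strong as hits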
An asterisk follows results filed as active. These rows are one share of the data; rates above refer to the full screens.

SMILES	Mtb bLac sens
O=C(COC(=O)C1=NN(c2ccccc2)C(=O)CC1)Nc1nc(-c2ccc(F)cc2)cs1	3
CCn1c(=O)c(=O)[nH]c2cc(C(=O)NCc3ccc(F)cc3)ccc21	1
COC(=O)[C@@]12CCCCN1[C@H](c1ccc(-c3ccccc3)c(OC)c1)[C@H]1C(=O)N(C)C(=O)[C@H]12	3
Cc1ccc(S(=O)(=O)N2CCCN(C(=O)c3ccc(-n4cccn4)cc3)CC2)cc1	3
CCN(CC(=O)Nc1ccc(NC(C)=O)cc1)C(=O)C1CCCN(C(=O)c2ccc(Cl)cc2)C1 (stereo not given)	3
CCN(CC)C(=O)c1cccc(NC(=O)C2CCN(C(=O)c3cccs3)CC2)c1	0
CNC(=S)N(C)/N=C1/C(=O)N(Cc2c(Cl)cccc2Cl)c2ccccc21	10
CC(C)c1ccc(S(=O)(=O)N2CCN(C(=O)C3=COCCO3)CC2)cc1	-1
COc1ccc(OC)c(/C=N/NC(=O)c2ccc[n+](CC(=O)c3ccccc3)c2)c1	-2
CCC(C)(C)C1CCc2[nH]nc(C(=O)NCCCNC(=O)OC(C)(C)C)c2C1 (stereo not given)	-4
COc1ccccc1CCNC(=O)CCNS(=O)(=O)c1ccc(NC(C)=O)cc1	-5
CCCOc1ccc(N/C=C/C(=O)c2ccc(OC)c(OC)c2)cc1	12
O=C1NC(Cc2ccccc2)c2nc3ccc(Cl)cc3c(=O)n2-c2ccc(Cl)cc21 (stereo not given)	35
CCN(CC)S(=O)(=O)c1ccc(OCC(=O)NC(=O)Cc2ccccc2)c([N+](=O)[O-])c1	1
C=CCN(c1ccc(F)cc1)S(=O)(=O)c1cc(C(=O)NC2CCC(O)CC2)ccc1Cl (stereo not given)	-7
CCOc1cc(N2CCOCC2)c(OCC)cc1NC(=O)c1ccc2ncsc2c1	3
CN(C)C1(CNC(=O)c2cccc(S(=O)(=O)NCc3ccccc3)c2)CCCCC1	-13
COc1ccc(Cl)cc1NC(=O)COC(=O)C1COc2ccccc2O1 (stereo not given)	-5
N#Cc1ccc(COc2cccc3cccnc23)cc1	-4
Cc1nn(CC(=O)NNC(=O)c2ccc(Br)cc2)c(C)c1[N+](=O)[O-]	4
c1ccc2ccccc2c1	-1
COc1ccc(S(=O)(=O)N2CCN(C(=O)CNC(=O)c3ccc4c(c3)OCO4)CC2)cc1	-9
O=C(Nc1ccc(F)c(F)c1)c1ccc(-n2cncn2)c([N+](=O)[O-])c1	3
Cn1cccc1C(=O)NC(=O)COC(=O)CCNS(=O)(=O)c1ccc(Cl)cc1	-4
CC(C)CN(C(=O)CSc1nc2ccccc2[nH]1)C1CCS(=O)(=O)C1 (stereo not given)	-6
O=C(NCC(=O)N1CCN(c2ncccn2)CC1)c1ccc(F)cc1	0
COCCCn1cnnc1SC(C)C(=O)Nc1ccc(S(=O)(=O)N2CCOCC2)cc1 (stereo not given)	-3
CCc1ccccc1NC(=O)[C@@H]1CCC(=O)N1C1OC(=O)c2c1ccc(OC)c2OC (stereo not given in full)	-6
CN(C)CCCNC(=O)c1ccc(Cl)c(S(=O)(=O)N2CCCCCC2)c1	-2
CC1CCN(C(=O)COC(=O)c2n[nH]c(=O)c3ccccc23)CC1	-4
Cc1csc(NC(=O)c2c(-c3c(F)cccc3Cl)noc2C)n1	-1
Cc1cccc(C(=O)NCC(=O)OCC(=O)c2ccc(Br)s2)c1	-2
Cc1ccccc1C(=O)N1CCC(C(=O)N2CCCc3ccccc32)CC1	-1
NCCNC(=O)Cc1ccc(NC(=O)Cc2ccc(Nc3ncnc4c3ncn4[C@@H]3O[C@H](CO)[C@@H](O)[C@H]3O)cc2)cc1	0
O=C(Nc1nc(-c2ccccn2)cs1)c1ccccc1-n1cnnn1	86
COc1ccc(C(=O)N2CCC(C(N)=O)CC2)cc1S(=O)(=O)N1CCCC1	5
COC(=O)C1=C(c2ccc(F)cc2OCc2ccccc2)C[C@@H]2CC[C@H]1N2C(=O)NCc1ccc2c(c1)OCO2	-2
O=C(COC(=O)/C=C/c1cccs1)Nc1ccc(Cl)cc1F	3
C[C@@]12C(=O)N(Cc3ccco3)CC(=O)N1[C@H]1c3cc(Cl)ccc3OC[C@@H]1[C@@H]2c1ccccc1	-9
COc1ccc(Cl)cc1NC(=O)CN(C)C(=O)c1cc(C)oc1C	-4
O=C(NNC(=O)c1cccc(S(=O)(=O)N2CCCCC2)c1)c1ccccc1	4
O=C(COC(=O)C1CC2CCCC(C1)C2=O)c1cccc(Br)c1 (stereo not given)	4
O=C(NCc1ccco1)C1CCN(C(=O)c2ccc(Cl)cc2)CC1	-6
Cc1nn(CC(=O)OCC(=O)NCCc2ccc(F)cc2)c(C)c1[N+](=O)[O-]	-1
Cc1ccc(S(=O)(=O)N2CCN(C(=O)c3n[nH]c(=O)c4ccccc34)CC2)c(C)c1	-5
CC(C)(C)NC(=O)CC1C[C@H](C(=O)N2CCCCC2)[C@@]2(CCc3ccccc3)c3[nH]c4ccccc4c3CCN2C1=O (stereo not given in full)	3
CN(Cc1ccccc1)C1CCCN(C(=O)COc2ccccc2Cl)C1 (stereo not given)	-11
O=C(NCc1cccnc1)c1ccc(NS(=O)(=O)c2cccc([N+](=O)[O-])c2)cc1	2
CC1CN(CCOc2ccccc2C(C)C)CC(C)O1 (stereo not given)	-4
CN(CC(=O)Nc1ccc(F)cc1)C(=O)CN1C(=O)NC2(CCCCC2)C1=O	-5
COc1ccc(NC(=O)Cn2nc(C)c3ccccc3c2=O)cc1	1
CCOc1ccc(C(C)NC(=O)c2ccc3c(c2)NC(=O)C(C)S3)cc1OCC (stereo not given)	2
CCN(CC)C(=O)c1[nH]cnc1C(=O)NCc1ccccc1	-5
CC(=O)Nc1ccc(S(=O)(=O)NCCCc2ccccc2)cc1	-5
CC(C)NC(=O)Nc1cccc2c1O[C@H](CN(C)C(=O)NC(C)C)[C@@H](C)CN([C@H](C)CO)C2=O	-10
C[C@H](CO)N1C[C@H](C)[C@@H](CN(C)C(=O)Nc2ccc(C(F)(F)F)cc2)Oc2ccc(NC(=O)Cn3cnnn3)cc2C1=O	0
c1ccc(-c2ccncc2)nc1	1
CCN(CC(=O)NCc1cccs1)C(=O)COc1ccc(C(C)=O)cc1	-6
Cc1ccc(S(=O)(=O)CCC(=O)OCC(=O)NNC(=O)c2ccc([N+](=O)[O-])cc2)cc1	33
C[C@@H]1COC(=O)[C@H](CC(=O)OC(C)(C)C)C/C=C\C[C@@H](CC(=O)N(CCO)Cc2ccccc2)C(=O)N1	-5
Next entries follow:
SMILES	Mtb bLac sens
O=S(=O)(Nc1ccc(-n2cnnn2)cc1)c1ccc(Cl)s1	2
O=[N+]([O-])c1ccc(-c2c(-c3ccccc3)ncc3ccc(F)cc23)cc1	38
O=C(Nc1cc([N+](=O)[O-])ccc1Cl)c1cccnc1	-1
Cc1nn(C)c(C)c1NS(=O)(=O)c1ccccc1Cl	-7
CCN1/C(=C/c2ccc3cc(C)ccc3[n+]2CC)Sc2ccc3sccc3c21	100
C[C@]12c3[nH]c4ccccc4c3CCN1C(=O)C(CC(=O)NCCN1CCOCC1)C[C@@H]2C(=O)N1CCOCC1 (stereo not given in full)	-2
CCN(CC)C(=O)c1nc[nH]c1C(=O)N(C)Cc1ccccc1	7
CCN(CC(=O)Nc1c(F)cccc1F)C(=O)C1CC1	-4
CCN1C(=O)C(=O)N(CC(=O)c2cc(C)n(C3CC3)c2C)C1=O	3
COc1ccc(Cn2c(=S)[nH]c3cc(C(=O)N4CCCCC4)ccc3c2=O)cc1	10
O=C(NCC1CCCO1)c1cccc2c1C(=O)c1ccc(N3CCC(Cc4ccccc4)CC3)cc1S2(=O)=O (stereo not given)	3
CCCn1c(N)c(C(=O)COC(=O)CNC(=O)c2ccc(C)c(C)c2)c(=O)n(C)c1=O	-4
COc1ccccc1S(=O)(=O)Nc1ccc(S(=O)(=O)Nc2nccs2)cc1	-5
COc1ccc2c(c1)OC[C@H]1[C@H]2N2C(=O)CN(Cc3ccc(Cl)cc3)C(=O)[C@@]2(C)[C@H]1c1ccccc1	85
CS(=O)(=O)c1ccc(C(=O)NCC2(N3CCOCC3)CCCCC2)cc1	0
CCN(C(=O)COC(=O)/C=C/c1ccc(F)cc1)C1CCCCC1	9
CC(C)CC(C)N (stereo not given)	-6
COc1ccc(S(=O)(=O)N2CCOCC2)cc1NC(=O)CN1CCCc2ccccc21	3
C=CCC[C@@H](Cc1ccc(F)cc1)C(=O)O[C@H](CNC(=O)[C@@H](CC=C)CC(=O)N[C@H](CO)Cc1ccccc1)c1ccccc1	-1
COc1cccc(NS(=O)(=O)c2ccc3c(c2)CC(=O)N3)c1	3
COC(=O)C1=C(c2cccc3c2S(=O)(=O)c2ccccc2-3)C[C@@H]2CC[C@H]1N2C(=O)N1CCc2cc(OC)c(OC)cc2C1	35
CC(C)CN(C(=O)CSc1nncn1C)C1CCS(=O)(=O)C1 (stereo not given)	-9
O=[N+]([O-])c1ccc(N(CCO)Cc2ccccc2)c([N+](=O)[O-])c1	-1
COC(=O)[C@]1(Cc2ccccc2)N[C@H](CN(C)C(=O)Nc2ccccc2)[C@@H]2C(=O)N(Cc3ccccc3)C(=O)[C@@H]21	2
Cc1ccccc1OCC(=O)OC(C)C(=O)NC1CCCC1 (stereo not given)	-5
O=C(NC1CCCCC1)c1cc(S(=O)(=O)N2CCN(c3ccccc3)CC2)ccc1Cl	1
CC(C)C(=O)N1CCN(c2ccccc2NC(=S)NC(=O)/C=C/c2ccco2)CC1	4
O=C(C[C@@H]1C/C=C\C[C@@H](Cc2ccc(F)cc2)C(=O)OCCNC1=O)N[C@H](CO)Cc1ccccc1	-4
O=C(CN1CCN(C(=O)C2CC2)CC1)Nc1cc(C(F)(F)F)cc(C(F)(F)F)c1	-7
COC(=O)C1=C(c2c(C)noc2C)C[C@@H]2CC[C@H]1N2C(=O)N1CCC(O)(c2ccc(Cl)cc2)CC1	-9
COc1cc(C(=O)NNC(=O)/C=C/c2ccco2)cc(OC)c1OC	2
COc1cc(OC)cc(C(=O)NNC(=O)C2CSC3(C)CCC(=O)N23)c1 (stereo not given)	-4
Cc1noc(C)c1S(=O)(=O)N(C)C[C@H]1Oc2c(NS(=O)(=O)c3cn(C)cn3)cccc2C(=O)N([C@H](C)CO)C[C@@H]1C	4
Cc1ccc(CN(C)C(=O)CN2C(=O)NC3(CCCc4ccccc43)C2=O)c(C)c1 (stereo not given)	-1
N/C(=N\OCC(=O)Nc1ccc(F)c(Cl)c1)c1ccccc1	-6
Cc1ccc(NC(=O)C(C)Sc2nc3nc(C)cc(C)n3n2)cc1 (stereo not given)	-2
Cc1cc(C(=O)CSc2nc(N)cc(=O)[nH]2)c(C)n1CC1CCCO1 (stereo not given)	7
CCCCN(C(=O)c1ccc(NC2CC2)c([N+](=O)[O-])c1)c1c(N)n(CC(C)C)c(=O)[nH]c1=O	-1
O=C(COc1cccnc1[N+](=O)[O-])Nc1cccc2ccccc12	-5
COc1ccccc1-c1noc(Cn2cc(S(=O)(=O)N3CCCC3)ccc2=O)n1	-1
COc1ccc(NC(=O)CSc2n[nH]c(-c3ccncc3)n2)cc1Cl	-7
O=C(Nc1cccc(S(=O)(=O)Nc2ccccc2F)c1)c1ccco1	10
Nc1nc(SCC(=O)N2CCCc3ccccc32)n[nH]1	-1
Cc1cccc(C)c1NC(=O)CN(C)CC(=O)N1CC(=O)Nc2ccccc21	-1
COc1ccccc1CCC(=O)OCC(=O)N1c2ccccc2NC(=O)C1(C)C	-10
c1ccc(-c2cc3ncccc3cn2)cc1	-2
COc1ccc(/C=N/NC(=O)c2cccc(S(=O)(=O)N3CCCC3)c2)cc1O	-11
CC(=O)c1cccc(-c2csc(N3CCC(C(N)=O)CC3)n2)c1	4
CC(=O)Nc1ccc(SCC(=O)N2CCN(S(=O)(=O)c3ccccc3)CC2)cc1	-1
CN1CCN(S(=O)(=O)c2ccc(N(C)Cc3cccc(F)c3)nc2)CC1	-11
Cc1ccc(S(=O)(=O)/N=C(/Nc2ccc([N+](=O)[O-])cc2[N+](=O)[O-])c2ccccc2)cc1	-1
O=C(CCSc1ccc(Cl)cc1)N1CCN(S(=O)(=O)c2ccccc2)CC1	-2
C[C@@]12C(=O)N(CC3CCCO3)CC(=O)N1[C@H]1c3cc(Cl)ccc3OC[C@@H]1[C@@H]2c1ccccc1 (stereo not given in full)	3
